Bioassay records as filed in PubChem BioAssay.
HSD17B inhib: blocks hydroxysteroid 17-beta dehydrogenase activity; AID 893; Potency, µM (top dose mostly 57.1 µM), for inactives: at the top dose activity change, negative = inhibition, actives largely listed as inhibitors; 7.6% of 75,000 active; recombinant HSD17B10, NADH fluorescence kinetic; many of its hits are not listed in these tables; Q99714; active = well fitted inhibition curve with a large enough effect; inconclusive = small, poorly fitted or top-dose-only effect; inactive = no such curve, though single readings can be large or run the other way;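 also: the protocol describes HADH2 (HSD17B10) and not the HSD17B4 of the title; nearly all actives have a fitted effect of over 70% in size; most hits overshoot -100% by far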
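Activity followed as NADH fluorescence increase (ex 360, em 450 nm) every 30 seconds for 4 min, using final 90 uM beta-hydroxybutyryl CoA and 1 mM NAD+. Recombinant His-tagged enzyme, 20 nM, pH 9.0 Tris buffer, 15 min compound preincubation.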
* marks the source's active call; other numbers are inactive results; [ ] = another dose, or the depositor's remark. % is scaled to controls: 0 for no effect and ±100 for the full control effect; potency is read from the fitted curve at half-maximal effect. Not all compounds are listed; rates above refer to the full screens.

How did CC(=O)NC(CCS(C)(=O)=O)C(=O)Nc1cc(Cl)ccc1Cl (stereo unspecified) do in these assays?
HSD17B inhib: 9%

How did O=C(c1cnccn1)N1CCC[C@@]2(CCN(c3ncccn3)C2)C1 do in these assays?
HSD17B inhib: -12%

Results for O=c1cc(-c2ccccc2)[nH]c2[nH]n(-c3ccccc3)c(=O)c12 ?
HSD17B inhib: inconclusive

How did COCCCNc1nc2ccccc2nc1NS(=O)(=O)c1cccs1 do in these assays?
HSD17B inhib: inconclusive

Results for Cn1c(=O)cc(SCC(=O)NCCCN2CCN(c3ccc(F)cc3)CC2)c2ccccc21 ?
HSD17B inhib: -4%

What do the screens show for `CCc1nc(SCC(=O)Nc2cc(C)on2)n[nH]1`?
HSD17B inhib: -3%

What do the screens show for `Cc1cc(=O)n2nc(N3CCCC(C(=O)N4CCN(c5ccccc5)CC4)C3)sc2n1` (stereo unspecified)?
HSD17B inhib: 8%

Results for Cc1cc(C)c2[nH]c(=O)c(CN(Cc3ccc4c(c3)OCO4)Cc3nnnn3C3CCCC3)cc2c1 ?
HSD17B inhib: inconclusive

What do the screens show for `Cc1cc(NC(=O)CCn2c(=O)sc3ccccc32)no1`?
HSD17B inhib: 16%

How did N#Cc1c2n(c3c(=O)n(Cc4ccc(Cl)cc4)cnc13)CCCC2 do in these assays?
HSD17B inhib: 2%

How did COc1ccc(S(=O)(=O)N2CCC(C(=O)N3CCCCCC3)CC2)cc1 do in these assays?
HSD17B inhib: 5%

How did Cc1ccc2[nH]c3c(c2c1)CN(C(=O)CN1CCSCC1)CC3 do in these assays?
HSD17B inhib: 9%

What do the screens show for `CCOC(=O)c1[nH]c(C)c(/C(O)=C2\C(=O)C(=O)N(CCN(C)C)C2c2ccco2)c1C` (stereo unspecified)?
HSD17B inhib: 1%

What do the screens show for `O=C(NCCOC(=O)C1COc2ccccc2O1)C1COc2ccccc2O1` (stereo unspecified)?
HSD17B inhib: 1%

What do the screens show for `Cc1nn(-c2nc3ccccc3s2)c(N)c1-c1ccccc1`?
HSD17B inhib: 2%

What do the screens show for `COc1ccc2[nH]cc(CCNc3ncnc4ccc(-c5ccccc5OC)cc34)c2c1`?
HSD17B inhib: 9%

What do the screens show for `COCCNC(=O)C(c1ccc(F)cc1)N(Cc1ccco1)C(=O)CCC(=O)Nc1nccs1` (stereo unspecified)?
HSD17B inhib: -8%

What do the screens show for `O=C(COc1cccc(-n2cnnn2)c1)N1CCOCC1`?
HSD17B inhib: -6%

What do the screens show for `O=C(Cn1c(=O)oc2ccccc21)NCc1ccco1`?
HSD17B inhib: 7%

How did COc1cc(NC(=O)CS(=O)(=O)c2ccccc2)cc(OC)c1OC do in these assays?
HSD17B inhib: 5%

Results for CNC(=O)C1(C)C=CC2(CCCCC2)N1C(=O)OC (stereo unspecified) ?
HSD17B inhib: -6%

How did N#Cc1c(-c2cccs2)cc(-c2cccnc2)nc1N do in these assays?
HSD17B inhib: 32µM*

How did Cc1cc(C)cc(-n2nnnc2SCC(=O)Nc2cccc(NC(=O)c3ccco3)c2)c1 do in these assays?
HSD17B inhib: -6%

How did NC(=O)CC(NC(=O)OCc1ccccc1)C(=O)O (stereo unspecified) do in these assays?
HSD17B inhib: -3%

How did O=C(OCC#CCSc1nc2ccccc2o1)c1ccco1 do in these assays?
HSD17B inhib: -12%

What do the screens show for `O=C(O)CN1C(=O)Nc2ccc(Br)cc2C1c1ccccc1` (stereo unspecified)?
HSD17B inhib: 6%

How did O=C(c1cnccn1)N1CCC[C@@]2(CCN(Cc3nccs3)C2)C1 do in these assays?
HSD17B inhib: -2%

What do the screens show for `CSC1=N/C(=C\C=C\c2cccs2)C(=O)S1`?
HSD17B inhib: -20%

What do the screens show for `Cc1ccc(-n2ncc(C#N)c2/N=C/N2CCOCC2)cc1`?
HSD17B inhib: -13%

What do the screens show for `CCCNc1ncccc1C(N)=O`?
HSD17B inhib: 25µM*

Results for O=C(COc1ccccc1Br)c1ccc(O)cc1O ?
HSD17B inhib: -14%

How did COCc1cc(C)nc(SCC(=O)NCc2ccco2)c1C#N do in these assays?
HSD17B inhib: 0%

How did COc1ccccc1C(=O)NC(C)C(c1cccs1)N1CCOCC1 (stereo unspecified) do in these assays?
HSD17B inhib: 2%

How did O=C(O)c1ccccc1C(=O)NCc1ccc(F)cc1 do in these assays?
HSD17B inhib: 1%

How did C=C1CC2C=C(NC(C)=O)CC(C1)C2 (stereo unspecified) do in these assays?
HSD17B inhib: -3%

Results for Cc1nc(C)c(C(=O)C2=C(O)C(=O)N(CCCn3ccnc3)C2c2ccccc2)s1 (stereo unspecified) ?
HSD17B inhib: -6%

Results for COc1nc(NCCN2CCOCC2)nc(Nc2ccccc2)n1 ?
HSD17B inhib: 0%

How did Nc1nonc1-c1noc(-c2ccccc2Br)n1 do in these assays?
HSD17B inhib: -1%

How did CC(=O)Oc1ccc2oc(C)c(C(=O)N3CCOCC3)c2c1 do in these assays?
HSD17B inhib: -1%

What do the screens show for `COc1ccc(C(c2nnnn2C2CCCC2)N2CCN(C3CCCC3)CC2)cc1OC` (stereo unspecified)?
HSD17B inhib: 6%

Results for COc1ncc2nc(-c3cccc(C#N)c3)c(=O)n(CCC#N)c2n1 ?
HSD17B inhib: 32µM*

What do the screens show for `CNc1ccnc(-c2cccc(NS(C)(=O)=O)c2)n1`?
HSD17B inhib: 4%

What do the screens show for `COc1ccc2nc(NC3=NCCC3)sc2c1`?
HSD17B inhib: -7%

Results for Cc1ccc(NC(=O)CSc2nc3c(c(=O)[nH]2)CCC3)cc1C ?
HSD17B inhib: -2%

How did CCCn1c(SCC(=O)Nc2cccc(C)n2)nnc1-c1ccco1 do in these assays?
HSD17B inhib: -9%

How did CCOC(=O)CC1=Nc2ccccc2NC(=O)C1 do in these assays?
HSD17B inhib: 5%

What do the screens show for `Oc1ccccc1C(=S)N1CCCCCC1`?
HSD17B inhib: 32µM*

What do the screens show for `O=C(CN1CCN(c2ccccc2F)CC1)Nc1ccccc1F`?
HSD17B inhib: -8%

How did CCCCN(C)CCC(=O)Nc1ccc(OC)cc1OC do in these assays?
HSD17B inhib: -3%

What do the screens show for `O=C(c1ccccc1)c1nc[nH]c1C(=O)Nc1ccccn1`?
HSD17B inhib: -1%

Results for [N-]=[N+]=CC(=O)CCCN1C(=O)c2ccccc2C1=O ?
HSD17B inhib: -2%

Results for O=C(CSc1nnc(-c2ccccc2F)o1)OCc1ccccc1 ?
HSD17B inhib: -13%

What do the screens show for `Cc1ccc(Nc2cccccc2=O)cc1`?
HSD17B inhib: -11%

Results for O=C(Nc1cccc2cccc(NC(=O)c3ccco3)c12)c1ccco1 ?
HSD17B inhib: -6%

What do the screens show for `O=C(O)CN1C(=O)C2C3C=CC(C3)C2C1=O` (stereo unspecified)?
HSD17B inhib: 0%

Results for CCCN1C(=O)C(O)(C2CC(=O)CC(C)(C)O2)c2ccccc21 (stereo unspecified) ?
HSD17B inhib: -11%

How did O=C(CNCC1CCCO1)N1CCCc2ccccc21 (stereo unspecified) do in these assays?
HSD17B inhib: 12%

How did O=C(Nc1ccccc1-c1nnn(CC(=O)N2CCN(c3ccccc3)CC2)n1)c1cccs1 do in these assays?
HSD17B inhib: inconclusive

How did COc1ccc(CNC(=O)C2CC(c3cccc(OC)c3)=NO2)cc1 (stereo unspecified) do in these assays?
HSD17B inhib: -2%

What do the screens show for `CCOC(=O)c1cccc(NC(=O)CSc2nc3cccnc3n2C)c1`?
HSD17B inhib: 0%

Structures listed so far that have two or more sulfur atoms, in the order listed:
How did COCCCNc1nc2ccccc2nc1NS(=O)(=O)c1cccs1 do in these assays?
HSD17B inhib: inconclusive

What do the screens show for `CSC1=N/C(=C\C=C\c2cccs2)C(=O)S1`?
HSD17B inhib: -20%

17 structures already listed, sorted by SMILES length, ascending.
What do the screens show for `Cc1ccc(Nc2cccccc2=O)cc1`?
HSD17B inhib: -11%

What do the screens show for `COc1ccc2nc(NC3=NCCC3)sc2c1`?
HSD17B inhib: -7%

How did CCOC(=O)CC1=Nc2ccccc2NC(=O)C1 do in these assays?
HSD17B inhib: 5%

How did CCCCN(C)CCC(=O)Nc1ccc(OC)cc1OC do in these assays?
HSD17B inhib: -3%

What do the screens show for `O=C(O)CN1C(=O)C2C3C=CC(C3)C2C1=O` (stereo unspecified)?
HSD17B inhib: 0%

What do the screens show for `CNc1ccnc(-c2cccc(NS(C)(=O)=O)c2)n1`?
HSD17B inhib: 4%

What do the screens show for `O=C(CN1CCN(c2ccccc2F)CC1)Nc1ccccc1F`?
HSD17B inhib: -8%

Results for O=C(CSc1nnc(-c2ccccc2F)o1)OCc1ccccc1 ?
HSD17B inhib: -13%

What do the screens show for `O=C(c1ccccc1)c1nc[nH]c1C(=O)Nc1ccccn1`?
HSD17B inhib: -1%

How did CC(=O)Oc1ccc2oc(C)c(C(=O)N3CCOCC3)c2c1 do in these assays?
HSD17B inhib: -1%

How did CCCn1c(SCC(=O)Nc2cccc(C)n2)nnc1-c1ccco1 do in these assays?
HSD17B inhib: -9%

What do the screens show for `CCOC(=O)c1cccc(NC(=O)CSc2nc3cccnc3n2C)c1`?
HSD17B inhib: 0%

How did COc1ccc(CNC(=O)C2CC(c3cccc(OC)c3)=NO2)cc1 (stereo unspecified) do in these assays?
HSD17B inhib: -2%

Results for Cc1ccc(NC(=O)CSc2nc3c(c(=O)[nH]2)CCC3)cc1C ?
HSD17B inhib: -2%

Results for COc1ncc2nc(-c3cccc(C#N)c3)c(=O)n(CCC#N)c2n1 ?
HSD17B inhib: 32µM*

What do the screens show for `COc1ccc(C(c2nnnn2C2CCCC2)N2CCN(C3CCCC3)CC2)cc1OC` (stereo unspecified)?
HSD17B inhib: 6%

How did O=C(Nc1ccccc1-c1nnn(CC(=O)N2CCN(c3ccccc3)CC2)n1)c1cccs1 do in these assays?
HSD17B inhib: inconclusive

Further structures
Results for C=C1CCC(C2CC(=O)OC2=O)C(=O)CCC2C1CC2(C)C (stereo unspecified) ?
HSD17B inhib: -19%

Results for COc1ccc(OC)c2c1CC(C)(C)NC2=O ?
HSD17B inhib: 32µM*

What do the screens show for `O=C(COC(=O)c1cc(S(=O)(=O)N2CCOCC2)ccc1Cl)Nc1ccc2c(c1)OCO2`?
HSD17B inhib: 6%

How did O=C(Nc1nccs1)c1ccc(COc2ccc(F)cc2)o1 do in these assays?
HSD17B inhib: -6%

What do the screens show for `N#CCc1nc2n(n1)Cc1ccccc1-2`?
HSD17B inhib: 7%

Results for CCC(=O)Nc1nnc(SCC(=O)Nc2ccc(F)cc2)s1 ?
HSD17B inhib: 0%

Results for O=C(COc1nsnc1N1CCOCC1)N1CCOCC1 ?
HSD17B inhib: 13%

How did Cc1n[nH]c(C)c1S(=O)(=O)NCCc1ccc(Cl)cc1 do in these assays?
HSD17B inhib: 6%

How did Cc1oc(-c2ccccc2)cc1C(N)=O do in these assays?
HSD17B inhib: -9%

What do the screens show for `COc1ccc(-c2nn(-c3ccccc3)cc2C(=O)Nc2nc(CC(C)=O)ns2)cc1`?
HSD17B inhib: inconclusive

What do the screens show for `COC(=O)C(C)Sc1nc2c(c(=O)n1-c1ccccc1)SCC2` (stereo unspecified)?
HSD17B inhib: -3%

Results for CCC(=O)Nc1ccc(N2CCN(Cc3ccccc3)CC2)cc1 ?
HSD17B inhib: 10%

Results for NC1(C(=O)O)CCCCC1 ?
HSD17B inhib: -2%

How did CC1(C)O[C@H]2[C@@H](O1)[C@@H](On1nnc3ccc(Cl)cc31)O[C@@H]2[C@@H]1COC(C)(C)O1 do in these assays?
HSD17B inhib: 3%[11.4 µM]

What do the screens show for `CCCCNc1ncnc2c1cnn2-c1ccc(Cl)cc1`?
HSD17B inhib: inconclusive

How did COc1ccc(N(CC(=O)NCc2cccc(OC)c2)S(=O)(=O)c2c(C)noc2C)cc1 do in these assays?
HSD17B inhib: -3%
